# Vaccinia stage – Vaccinia orthopox stage-specific inhibition. Vaccinia-infected cells, mCherry/Venus stage reporter fluorescence; active compounds read low; some inactives read as strong as hits. activity change (mCherry), % (no concentration beside the values). 89,000 tested, 0.01% active;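 active means mCherry past -33% and 40 or more points under the early reporter, replicates agreeing; inconclusive means past -33% without that gap or agreement; tested in A549 cells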;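 further: scaled between vehicle wells and reference inhibitor wells; 23 nL library stock went into each well; one replicate is shown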
# Vaccinia stage Venus – also measured in Vaccinia stage; calls as there; activity change (Venus), %; measured here: Venus reporter, other viral stage;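 negative = less Venus signal; first of two replicates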
# The depositor's hits bear a star; ? = inconclusive; . = no result given. An excerpt (hit frequency here may not be typical).
nr	SMILES	Vaccinia stage	Vaccinia stage Venus
1	CCCC#Cc1ccc([C@@H]2[C@@H](C#N)N(C(=O)C3CCCCC3)[C@@H]2CO)cc1	-3	-1
2	CN(C)C(=O)C[C@@H]1CC[C@@H](NS(=O)(=O)c2ccccc2)[C@H](CO)O1	5	15
3	COc1cccc(-c2ccc3c(c2)[C@@H]2[C@@H](CCN2C(=O)C2CCCC2)[C@H](CO)N3)c1	?	.
4	CN(C)C(=O)c1cccc(-c2ccc([C@H]3[C@H](CO)N4CCCCN(CC5CCOCC5)C[C@@H]34)cc2)c1	16	12
5	C[C@H]1CN([C@@H](C)CO)C(=O)c2cc(NS(=O)(=O)c3ccc(F)cc3)ccc2O[C@@H]1CN(C)C(=O)Nc1ccc(F)cc1	28	17
6	C[C@@H]1CN([C@@H](C)CO)S(=O)(=O)c2ccc(C#CCN(C)C)cc2O[C@@H]1CN(C)S(C)(=O)=O	-1	2
7	C[C@H](CO)N1C[C@H](C)[C@@H](CN(C)Cc2ccncc2)Oc2cc(C#CCN(C)C)ccc2S1(=O)=O	-11	-14
8	C[C@H]1CN([C@@H](C)CO)S(=O)(=O)c2ccc(C#CC3(O)CCCC3)cc2O[C@H]1CN(C)C(=O)Cc1ccccc1	-17	-16
9	O=C(CC1CC1)N[C@@H]1CC[C@H](CCNS(=O)(=O)c2ccc(F)cc2)O[C@H]1CO	11	6
10	C[C@H]1CN([C@@H](C)CO)C(=O)Cc2cc(NC(=O)c3ccncc3)ccc2O[C@H]1CN(C)C(=O)Nc1ccc2c(c1)OCO2	1	15
11	C[C@@H]1CN([C@@H](C)CO)C(=O)c2cc(-c3ccncc3)cnc2O[C@@H]1CN(C)C(=O)c1cccc(F)c1	21	4
12	COc1ccc(NC(=O)Nc2cccc3c2O[C@@H](CN(C)Cc2ccc(-c4ccccc4)cc2)[C@H](C)CN([C@@H](C)CO)C3=O)cc1	15	5
13	CN(C)C(=O)c1ccc(-c2ccc([C@H]3[C@H]4CN(S(C)(=O)=O)CCCCN4[C@H]3CO)cc2)cc1	15	0
14	COc1ccccc1C#Cc1ccc([C@H]2[C@@H](C#N)N(C(=O)C3CCCCC3)[C@@H]2CO)cc1	?	.
15	CC(C)CC#Cc1cnc2c(c1)C(=O)N([C@@H](C)CO)C[C@@H](C)[C@H](CN(C)S(=O)(=O)c1cn(C)cn1)O2	-5	14
16	CN1CCN(C(=O)C[C@H]2CC[C@@H]3[C@H](COC[C@@H](O)CN3Cc3cccc(F)c3)O2)CC1	-9	0
17	O=C(C[C@H]1CC[C@@H](NC(=O)C2CC2)[C@@H](CO)O1)NCc1ccccc1Cl	6	7
18	C[C@@H]1CCCCO[C@H](CN(C)C(=O)CCC(F)(F)F)[C@H](C)CN([C@H](C)CO)C(=O)c2cc(NC(=O)NC3CCCCC3)ccc2O1	-33	-23
19	C[C@@H](NC(=O)C[C@@H]1CC[C@H](NS(=O)(=O)c2cccc(F)c2)[C@H](CO)O1)c1ccccc1	6	1
20	Cc1noc(C)c1S(=O)(=O)Nc1ccc2c(c1)C(=O)N([C@@H](C)CO)C[C@@H](C)[C@H](CN(C)Cc1ccc(Oc3ccccc3)cc1)O2	-24	-18
21	C[C@@H]1CCCCO[C@@H](CN(C)Cc2ccc(Cl)c(Cl)c2)[C@@H](C)CN([C@H](C)CO)C(=O)c2cc(NC(=O)Nc3cccc4ccccc34)ccc2O1	3	0
22	COCC(=O)N1CC(=O)N2[C@H](CO)[C@@H](c3ccc(Br)cc3)[C@@H]2C1	24	-3
23	CO[C@@H]1CN(C)C(=O)c2cc(NC(=O)c3cc(C)on3)ccc2OC[C@@H](C)N(C(C)=O)C[C@H]1C	15	15
24	C[C@H](CO)N1C[C@H](C)[C@H](CN(C)C(=O)C2CC2)Oc2ncc(-c3cccnc3)cc2C1=O	23	6
25	COc1ccccc1S(=O)(=O)N[C@H]1CC[C@H](CCNC(=O)C2CCOCC2)O[C@H]1CO	-1	-8
26	C[C@H]1CN([C@@H](C)CO)S(=O)(=O)c2ccc(C#Cc3ccccc3)cc2O[C@H]1CN(C)S(=O)(=O)c1ccccc1F	-16	-7
27	O=C(C[C@H]1CC[C@@H]2NC[C@@H](O)COC[C@H]2O1)NCCc1ccccc1	22	19
28	C[C@H]1CN([C@@H](C)CO)S(=O)(=O)c2ccc(-c3cncnc3)cc2O[C@H]1CN(C)C(=O)CN(C)C	20	14
29	COc1cccc(CNC(=O)C[C@H]2CC[C@H]3[C@H](COc4ccc(NC(=O)c5cccs5)cc4C(=O)N3C)O2)c1	-9	2
30	CC(C)NC(=O)Nc1ccc2c(c1)C(=O)N([C@@H](C)CO)C[C@@H](C)[C@@H](CN(C)Cc1ccc(Cl)c(Cl)c1)OCCCC[C@@H](C)O2	-26	-11
31	COc1cccc(S(=O)(=O)Nc2ccc3c(c2)C(=O)N(C)C[C@@H](OC)[C@H](C)CN[C@H](C)CO3)c1	4	2
32	COc1ccc(C#Cc2ccc3c(c2)O[C@@H](CN(C)C)[C@H](C)CN([C@H](C)CO)S3(=O)=O)cc1	?	.

# The list goes on (three carried over from the part before).
nr	SMILES	Vaccinia stage	Vaccinia stage Venus
30	CC(C)NC(=O)Nc1ccc2c(c1)C(=O)N([C@@H](C)CO)C[C@@H](C)[C@@H](CN(C)Cc1ccc(Cl)c(Cl)c1)OCCCC[C@@H](C)O2	-26	-11
31	COc1cccc(S(=O)(=O)Nc2ccc3c(c2)C(=O)N(C)C[C@@H](OC)[C@H](C)CN[C@H](C)CO3)c1	4	2
32	COc1ccc(C#Cc2ccc3c(c2)O[C@@H](CN(C)C)[C@H](C)CN([C@H](C)CO)S3(=O)=O)cc1	?	.
33	COc1ccc2c3c(n(C)c2c1)[C@@H](CO)N(C(=O)Nc1cccc(F)c1)CC31CN(C)C1	-5	-1
34	C[C@@H]1CN([C@@H](C)CO)S(=O)(=O)c2ccc(C#CC(C)(C)O)cc2O[C@@H]1CN(C)Cc1ccc(-c2ccccc2)cc1	?	.
35	C[C@@H]1CN([C@@H](C)CO)C(=O)Cc2cc(N(C)C)ccc2O[C@@H]1CN(C)Cc1ccc(C(=O)Nc2ccccc2N)cc1	?	.
36	C[C@@H]1CCCCO[C@@H](CN(C)S(=O)(=O)c2cccs2)[C@@H](C)CN([C@@H](C)CO)C(=O)c2cc(NC(=O)c3ccncc3)ccc2O1	22	11
37	CC(=O)N[C@@H]1CC[C@H](CCNC(=O)C2CCCC2)O[C@H]1CO	-6	3
38	OC(CSc1nc(-c2ccccc2)c(-c2ccccc2)o1)CC(O)c1ccccc1 (stereo unspecified)	-24	-19
39	O=C(N[C@H]1CC[C@H](CCNS(=O)(=O)c2ccccc2Cl)O[C@@H]1CO)c1ccccc1	-2	-3
40	C[C@@H]1CN([C@@H](C)CO)C(=O)c2cc(C#CC3CC3)cnc2O[C@H]1CN(C)Cc1ccccc1C(=O)O	18	6
41	Cc1noc(C)c1NC(=O)N(C)C[C@H]1Oc2c(NC(=O)Nc3cccc4ccccc34)cccc2C(=O)N([C@H](C)CO)C[C@@H]1C	6	10
42	CCCN(C)C[C@H]1OCCCC[C@@H](C)Oc2ccc(NC(=O)Nc3ccc(F)cc3)cc2C(=O)N([C@H](C)CO)C[C@@H]1C	-2	-6
43	Cc1noc(C)c1NC(=O)Nc1ccc2c(c1)C(=O)N([C@@H](C)CO)C[C@H](C)[C@H](CN(C)S(=O)(=O)c1ccccc1)OCCCC[C@@H](C)O2	33	14
44	CCNC(=O)C[C@@H]1CC[C@@H](NS(=O)(=O)c2ccc(C)cc2)[C@@H](CO)O1	-10	11
45	CC(=O)N(C)C[C@H]1Oc2cc(C#C[C@@H](C)O)ccc2S(=O)(=O)N([C@H](C)CO)C[C@@H]1C	13	10
46	O=C(C[C@H]1C[C@H]2c3cc(NS(=O)(=O)c4ccc(F)cc4)ccc3O[C@H]2[C@H](CO)O1)NCCN1CCCCC1	9	15
47	O=C(NCc1ccccc1)[C@H]1N[C@H]2c3ccc(-c4ccccc4)c(=O)n3C[C@H]2[C@@H]1CO	18	9
48	COc1ccccc1S(=O)(=O)N[C@@H]1C=C[C@H](CC(=O)NCc2cccc(F)c2)O[C@@H]1CO	-3	-5
49	Cc1ccc(S(=O)(=O)N(C)C[C@H]2OCCCC[C@@H](C)Oc3ccc(NC(=O)Cc4ccccc4)cc3C(=O)N([C@@H](C)CO)C[C@@H]2C)cc1	0	-14
50	O=C(Nc1ccccc1F)N1CCCCN2[C@H](CO)[C@H](c3ccc(C4=CCCC4)cc3)[C@@H]2C1	-2	-3
51	O=C(Cc1ccncc1)NCC[C@@H]1CC[C@@H](NC(=O)Nc2ccc(F)cc2)[C@@H](CO)O1	13	6
52	O=C(C[C@@H]1CC[C@H](NC(=O)CC2CC2)[C@@H](CO)O1)NCC(F)(F)F	5	-2
53	COc1ccc2c3c(n(C)c2c1)[C@H](CO)N(CC1CC1)CC31CN(C(=O)CC2CC2)C1	20	6
54	Cc1ccc(CN(C)C[C@H]2OCc3cn(nn3)CCCC(=O)N([C@@H](C)CO)C[C@H]2C)cc1	21	21
55	O=C(Nc1ccc(F)cc1)N[C@H]1CC[C@@H](CCn2cc(C3(O)CCCC3)nn2)O[C@H]1CO	-8	-10
56	CN(C)CCCNC(=O)C[C@@H]1CC[C@H]2[C@@H](COC[C@H](O)CN2S(=O)(=O)c2ccc(F)cc2)O1	4	7
57	CN(C)C(=O)C[C@H]1CC[C@H]2[C@H](COc3ccc(NS(=O)(=O)c4cccc(F)c4)cc3C(=O)N2C)O1	13	10
58	COc1ccc(S(=O)(=O)N[C@H]2C=C[C@H](CC(=O)NCCc3ccccc3)O[C@H]2CO)cc1	4	3
59	C[C@@H]1CN([C@@H](C)CO)C(=O)c2cc(NC(=O)Cn3cnnn3)ccc2O[C@H]1CN(C)Cc1ccc(C(=O)Nc2ccccc2N)cc1	12	2
60	CO[C@@H]1CN(C)C(=O)c2cc(NC(=O)C3CCC3)ccc2OC[C@@H](C)N(Cc2ccncc2)C[C@@H]1C	5	-3
61	C[C@H]1CN([C@@H](C)CO)C(=O)c2cccc(NS(=O)(=O)c3ccc(Cl)cc3)c2O[C@H]1CN(C)CC1CC1	-1	2
62	CC(C)NC(=O)N(C)C[C@@H]1Oc2ccc(NC(=O)Cc3cn(C)c4ccccc34)cc2C(=O)N([C@@H](C)CO)C[C@@H]1C	7	8
63	C[C@H]1CN([C@@H](C)CO)C(=O)c2cc(NC(=O)Nc3ccc(F)cc3)ccc2O[C@H]1CN(C)C	11	15
64	CO[C@@H]1CN(C)C(=O)c2cc(NS(=O)(=O)CC(F)(F)F)ccc2OC[C@@H](C)N(CCC(F)(F)F)C[C@H]1C	4	7

# Structural class, the compounds so far containing a Cl atom (five)
nr	SMILES	Vaccinia stage	Vaccinia stage Venus
17	O=C(C[C@H]1CC[C@@H](NC(=O)C2CC2)[C@@H](CO)O1)NCc1ccccc1Cl	6	7
21	C[C@@H]1CCCCO[C@@H](CN(C)Cc2ccc(Cl)c(Cl)c2)[C@@H](C)CN([C@H](C)CO)C(=O)c2cc(NC(=O)Nc3cccc4ccccc34)ccc2O1	3	0
30	CC(C)NC(=O)Nc1ccc2c(c1)C(=O)N([C@@H](C)CO)C[C@@H](C)[C@@H](CN(C)Cc1ccc(Cl)c(Cl)c1)OCCCC[C@@H](C)O2	-26	-11
39	O=C(N[C@H]1CC[C@H](CCNS(=O)(=O)c2ccccc2Cl)O[C@@H]1CO)c1ccccc1	-2	-3
61	C[C@H]1CN([C@@H](C)CO)C(=O)c2cccc(NS(=O)(=O)c3ccc(Cl)cc3)c2O[C@H]1CN(C)CC1CC1	-1	2

# Single values from the results shown:
# For Vaccinia stage Venus, CC(C)NC(=O)N(C)C[C@@H]1Oc2ccc(NC(=O)Cc3cn(C)c4ccccc34)cc2C(=O)N([C@@H](C)CO)C[C@@H]1C reads 8
# For Vaccinia stage, C[C@H]1CN([C@@H](C)CO)C(=O)c2cccc(NS(=O)(=O)c3ccc(Cl)cc3)c2O[C@H]1CN(C)CC1CC1 reads -1

# (listing goes on)
nr	SMILES	Vaccinia stage	Vaccinia stage Venus
65	O=C(C[C@@H]1CC[C@H]2[C@@H](COC[C@@H](O)CN2C(=O)c2ccccn2)O1)N1CCN(c2ccccc2)CC1	8	10
66	C[C@H](CO)N1C[C@H](C)[C@@H](CN(C)CC2CC2)Oc2c(NC(=O)Nc3cccc4ccccc34)cccc2C1=O	2	-3
67	Cc1noc(C)c1NC(=O)N(C)C[C@@H]1Oc2c(NS(=O)(=O)c3ccc(F)cc3)cccc2C(=O)N([C@H](C)CO)C[C@H]1C	31	13
68	N#C[C@H]1[C@@H](c2ccccc2-c2ccccc2)[C@H](CO)N1C(=O)NC1CCCCC1	0	3
69	CO[C@H]1CN(C)C(=O)c2cc(NS(=O)(=O)c3ccccc3)ccc2OC[C@@H](C)N(Cc2cccnc2)C[C@@H]1C	3	4
70	Cc1noc(C)c1S(=O)(=O)Nc1ccc2c(c1)CC(=O)N([C@H](C)CO)C[C@H](C)[C@H](CN(C)S(=O)(=O)c1cccs1)O2	-10	-8
71	O=C(C[C@H]1CC[C@@H]2[C@H](COC[C@@H](O)CN2Cc2cc(F)cc(F)c2)O1)NC1CCCC1	7	3
72	CCCNC(=O)N1[C@H](CO)[C@@H](c2ccc(-c3cccnc3)cc2)[C@@H]1C#N	15	6
73	O=C(c1ccccn1)N1C[C@@H]2[C@H](c3ccccc31)[C@@H](CO)N2C(=O)C1CC1	-3	4
74	O=C(N[C@@H]1CC[C@@H](CCn2cc(C3CC3)nn2)O[C@H]1CO)c1cccnc1	-2	-5
75	C[C@@H]1CN([C@@H](C)CO)C(=O)Cc2cc(NC(=O)NC3CCCCC3)ccc2O[C@H]1CN(C)Cc1ccc(-c2ccccc2)cc1	-20	-14
76	COCC(=O)N1[C@@H](C#N)[C@@H](c2ccccc2-c2ccc(C)cc2)[C@@H]1CO	1	-1
77	O=C(Cc1ccccc1)N[C@@H]1C=C[C@@H](CC(=O)N2CCOCC2)O[C@@H]1CO	3	13
78	CCC(=O)Nc1ccc2c(c1)C(=O)N(C)C[C@@H](OC)[C@@H](C)CN(C(=O)Cc1ccccn1)[C@@H](C)CO2	15	10

# Source: PubChem
